Assay outcomes: PubChem BioAssay, Sanford-Burnham Center for Chemical Genomics
HKDC1 inhibitor: HKDC1 hexokinase inhibitors, primary screen, biochemical, fluorescence, uHTS; Q2TB90; recombinant HKDC1, G6PDH/diaphorase resazurin coupled fluorescence; inhibition, % at 20 µM; 340,000 compounds, 0.16% hits; AID 493160, 2011;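 active means inhibition above about 35% when tested at 20 µM, limit read from the data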;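 further: plate controls were DMSO wells with enzyme for no effect and DMSO wells lacking enzyme for full effect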
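Assay system: in-house recombinant HK5 (HKDC1) enzyme. Input: HKDC1 at 5 µg/mL. Medium: Tris pH 8.0 buffer with MgCl2, Tween-20, BSA, BME. Dosing: single 20 µM dose. Schedule: 90 min reaction incubation at room temperature, dark. Signal: resazurin-to-resorufin fluorescence via G6PDH and diaphorase coupling, 525/613 nm. Controls: DMSO-enzyme wells negative, buffer-substituted wells positive.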
UBC13 polyUb: UBC13 polyubiquitin chain formation inhibitors, primary screen, biochemical, TR-FRET, uHTS. Ubiquitin-conjugating enzyme E2 N (Homo sapiens), P61088. inhibition, % at 20 µM. 330,000 compounds, 0.47% hits. AID 485273, 2010; in the data active means inhibition above about 45%, passing the limit was not always enough
Apaf-1 inh: inhibitors of human Apaf-1 apoptosome, primary screen, biochemical, DEVD-Rh110 fluorescence, uHTS; inhibition, % at 20 µM; reconstituted apoptosome caspase-3 activity; 330,000 compounds, 0.71% hits; active means inhibition of at least 40% at 20 µM;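 further: plate controls were DMSO wells for no effect and DEVD-CHO caspase inhibitor wells for full effect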
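Material: reconstituted apoptosome with Apaf-1, cytochrome c, caspase-9, procaspase-3, dATP. Technique: Rh110 fluorescence intensity. Buffer or medium: pH 7.5 Hepes buffer with CHAPS, BSA, DTT. Times: 30 min plus 50 min, RT.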
Gli-Sufu antag: Gli-Sufu pathway antagonists, primary screen, luciferase luminescence, Sufu-KO-LIGHT cells, uHTS. AID 588413, 2011. inhibition, % at 5 µM. 340,000 compounds, 0.74% hits. Sufu-KO-LIGHT fibroblasts, Gli luciferase reporter luminescence;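 active means inhibition above about 55%, limit read from the data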;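 further: 0% = DMSO-treated cells and 100% = wells with medium but no cells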
An asterisk follows results filed as active; · = not tested or not shown.

nr | mol | HKDC1 inhibitor | UBC13 polyUb | Apaf-1 inh | Gli-Sufu antag
1 | Brc1ccc(-c2cn3ccccc3n2)cc1 | 0 | 1 | -9 | -121
2 | O=C(Nc1nc2ccccc2s1)c1ccccc1 | -1 | 5 | -2 | -123
3 | CC1(C)O[C@@H]2C[C@H]3[C@@H]4CCC5=CC(=O)C=C[C@]5(C)[C@@]4(F)[C@@H](O)C[C@]3(C)[C@]2(C(=O)CO)O1 | -2 | -9 | -3 | 27
4 | O=C(NC(=S)Nc1ccccn1)c1ccc(-c2ccccc2)cc1 | 5 | 0 | 22 | -81
5 | C[C@]12CC[C@@H]3c4ccc(O)cc4CC[C@H]3[C@@H]1CC[C@@H]2O | -5 | -16 | 5 | 8
6 | Cc1cc(N)n2nc(-c3ccc(C(C)(C)C)cc3)cc2n1 | 6 | -4 | 26 | -62
7 | COc1cc2c(c(OC)c1OC)-c1ccc(OC)c(=O)cc1[C@@H](NC(C)=O)CC2 | 2 | -5 | -6 | 52
8 | COc1cc(C(=O)NCc2ccc(OCCN(C)C)cc2)cc(OC)c1OC | -6 | 8 | -3 | 3
9 | COc1ccc(-c2csc(-c3cccs3)n2)c(OC)c1 | 0 | 5 | -1 | -111
10 | O=CC(O)C1OC(=O)C(O)C1O (stereo unspecified) | -4 | · | · | 2
11 | Cc1nc(-c2ccc(C(=O)Nc3cccc(Br)c3)cc2)cs1 | 17 | 7 | 12 | -116
12 | COc1ccc(NC(=O)c2ccc3ccccc3c2)cc1 | -5 | -11 | 4 | -93
13 | COC(=O)c1ccc(NC(=O)Nc2ccccc2F)cc1 | -6 | 3 | 7 | -115
14 | O=C(COc1ccccc1Cl)N1CCc2ccccc21 | -5 | 4 | 4 | -81
15 | COc1cc2c(c(OC)c1OC)-c1ccc(OC)c(=O)cc1C(NC(C)=O)CC2 (stereo unspecified) | -1 | -2 | -7 | 45

6 compounds out of the list, sorted by molar mass, smallest number first:
nr | mol | HKDC1 inhibitor | UBC13 polyUb | Apaf-1 inh | Gli-Sufu antag
10 | O=CC(O)C1OC(=O)C(O)C1O (stereo unspecified) | -4 | · | · | 2
1 | Brc1ccc(-c2cn3ccccc3n2)cc1 | 0 | 1 | -9 | -121
12 | COc1ccc(NC(=O)c2ccc3ccccc3c2)cc1 | -5 | -11 | 4 | -93
4 | O=C(NC(=S)Nc1ccccn1)c1ccc(-c2ccccc2)cc1 | 5 | 0 | 22 | -81
8 | COc1cc(C(=O)NCc2ccc(OCCN(C)C)cc2)cc(OC)c1OC | -6 | 8 | -3 | 3
3 | CC1(C)O[C@@H]2C[C@H]3[C@@H]4CCC5=CC(=O)C=C[C@]5(C)[C@@]4(F)[C@@H](O)C[C@]3(C)[C@]2(C(=O)CO)O1 | -2 | -9 | -3 | 27

Full records from above:
Profile of COc1cc2c(c(OC)c1OC)-c1ccc(OC)c(=O)cc1C(NC(C)=O)CC2 (stereo unspecified) = HKDC1 inhibitor: -1; UBC13 polyUb: -2; Apaf-1 inh: -7; Gli-Sufu antag: 45
Profile of CC1(C)O[C@@H]2C[C@H]3[C@@H]4CCC5=CC(=O)C=C[C@]5(C)[C@@]4(F)[C@@H](O)C[C@]3(C)[C@]2(C(=O)CO)O1 = HKDC1 inhibitor: -2; UBC13 polyUb: -9; Apaf-1 inh: -3; Gli-Sufu antag: 27

Among those listed so far, these contain bromine.
nr | mol | HKDC1 inhibitor | UBC13 polyUb | Apaf-1 inh | Gli-Sufu antag
1 | Brc1ccc(-c2cn3ccccc3n2)cc1 | 0 | 1 | -9 | -121
11 | Cc1nc(-c2ccc(C(=O)Nc3cccc(Br)c3)cc2)cs1 | 17 | 7 | 12 | -116

These rows are one share of the data, so the mix of outcomes need not match the whole.
